AID504770: E. coli YBA685 growth inhibition, screen for V. cholerae RctB inhibitors. actives 0.27% (n = 130,000). AID 504770. z-score (concentration not given with the values). E. coli YBA685 rctB-dependent plasmid, OD600 growth, 3 h; hits give low values;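 active means z-score under -2 on both plates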;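 further: wells of about 30 µL received 100 nL stock; score is relative to mean and SD of the test wells; the first replicate is given; strong numbers were not always called active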
CapD inh: blocks the Bacillus anthracis CapD enzyme; purified CapD enzyme, fluorescence intensity read-out; hits give low values; some hits fall short of the stated cut; z-score (concentration not given with the values); actives 0.23% (n = 140,000); AID 492967;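 active means z-score under -4 in either of two replicates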;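 further: stock transfer was 100 nL into about 40 µL; score is relative to mean and spread of the plate; one replicate is shown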
* = called active by the depositor; nt = no result given; & = joins results of further samples.

| SMILES | AID504770 | CapD inh |
| --- | --- | --- |
| CCOC(=O)c1sc2nc(Cc3ccccc3)nc(NCCC3=CCCCC3)c2c1C | 0 | 0.62 |
| CCOC(=O)C1=CS/C(=C2/C(=S)C(C)(C)Nc3cc(C)ccc32)S1 | nt | -0.27 |
| O=C(NCC(O)c1ccccc1)c1ccc(Cl)cc1 (stereo unspecified) | 0.1 | 0.08 |
| O=C(N1CCC(n2cnc3cccnc32)CC1)N1c2ccccc2Sc2ccccc21 | 0.35 | nt |
| CCOC(=O)c1ccccc1NC(=S)N1CCC(N2CCCCC2)CC1 | -0.1 | -0.045 |
| N#Cc1ccc(NC(=O)c2oc3ccccc3c2CSCc2ccccc2)cc1 | 1 | nt |
| CCOC(=O)C1=C(C)N=c2s/c(=C\c3ccc(OC(C)=O)cc3)c(=O)n2C1c1ccc(OCC)c(OCC)c1 (stereo unspecified) | nt | -0.51 |
| N#CC(C#N)=CNCc1cccs1 | -0.9 | 0.31 |
| O=C1Cc2ccccc2CC(=O)N1 | -0.7 | nt |
| COc1ccc(-n2c(SCC(N)=O)nc3ccccc3c2=O)cc1 | -0.25 | nt |
| O=C1CSC(c2cccc([N+](=O)[O-])c2)N1c1ccc(Oc2ccccc2)cc1 (stereo unspecified) | nt | -0.19 |
| Cc1ccc([N+](=O)[O-])cc1NC(=O)c1cc(S(=O)(=O)Nc2cccc(C(=O)O)c2)c(Cl)cc1Cl | nt | -0.71 |
| Cc1ccc2c(O)c(-c3ccccc3)c(=O)[nH]c2c1 | nt | -0.65 |
| CC(C)(C)C(=O)CSc1nc2ccccc2c(=O)n1-c1ccccc1 | -1 | 0.18 |
| CCOC(=O)CNC(=O)c1cc(OC)cc(OC)c1 | nt | -1.6 |

In the list so far, these contain a thiophene ring, fused or not.
| SMILES | AID504770 | CapD inh |
| --- | --- | --- |
| CCOC(=O)c1sc2nc(Cc3ccccc3)nc(NCCC3=CCCCC3)c2c1C | 0 | 0.62 |
| N#CC(C#N)=CNCc1cccs1 | -0.9 | 0.31 |

The results go on:
| SMILES | AID504770 | CapD inh |
| --- | --- | --- |
| COc1cc2c(cc1NC(=O)C(C)NCc1ccc3c(c1)OCO3)oc1ccccc12 (stereo unspecified) | -0.75 | nt |
| CCCN1CCN(CCCNC(=O)c2cnc(SC)nc2-c2ccccc2)CC1 | 0.6 | -1.7 |
| Cn1c(=O)c(C#N)c(-c2ccccc2)n2cnnc12 | -0.7 | -0.19 |
| O=C(Cn1ncc2ccccc21)NCc1ccc(Cl)cc1 | 2.3 | -1.1 |
| CC1SC(c2ccc(Cl)cc2)N(Nc2nc(N3CCOCC3)nc(N3CCOCC3)n2)C1=O (stereo unspecified) | nt | 0.3 |
| Cc1cccnc1-n1c(CCN2C(=O)c3ccccc3C2=O)nc2ccccc2c1=O | 0.05 | 0.72 |
| CC(C)CN(C(=O)C1CC1)C1CCS(=O)(=O)C1 (stereo unspecified) | 0.2 | nt |
| CCOC(=O)CC1c2cc(OCC)c(OCC)cc2CCN1S(C)(=O)=O (stereo unspecified) | 1.2 | -1.1 |
| O=C1CCCN1c1ccccc1 | -0.45 | 0.51 |
| c1ccc(-c2nnc(CN3CCc4ccccc4C3)o2)cc1 | -1.2 | 2 |
| O=C(OCc1nc(-c2ccccc2Cl)no1)c1ccc2c(=O)n3c(nc2c1)CCCCCC3 | 0.7 | nt |
| CC(C)Cc1ccc2c(N)c(C(=O)O)sc2n1 | -0.7 | -0.27 |
| COc1cccc(C(=O)Nc2nnc(CCS(=O)(=O)c3cc(Cl)ccc3Cl)s2)c1 | nt | -0.49 |
| O=C(O)c1cc(C(=O)O)c(=O)[nH]c1-c1ccc(C(F)(F)F)cc1 | nt | -0.22 |
| O=C(Cn1ccn(-c2ccccc2)c(=O)c1=O)c1ccc(F)cc1 | -0.65 | -0.49 |

Complete entries from above:
Cc1cccnc1-n1c(CCN2C(=O)c3ccccc3C2=O)nc2ccccc2c1=O across the screens: AID504770: 0.05; CapD inh: 0.72
COc1cc2c(cc1NC(=O)C(C)NCc1ccc3c(c1)OCO3)oc1ccccc12 (stereo unspecified) across the screens: AID504770: -0.75; CapD inh: nt

(next part)
| SMILES | AID504770 | CapD inh |
| --- | --- | --- |
| O=C(Nc1cc(N2CCCCC2)ncn1)c1ccc(F)cc1 | -0.2 | 0.15 |
| Cc1ccc(CNc2ccccn2)cc1 | -0.6 | 12 |
| CSC1=NC2(CCN(C(=O)OC(C)(C)C)CC2)Nc2ccccc21 | -0.1 | 3.8 |
| O=c1cc(Nc2ccccc2)cc[nH]1 | -1.2 | 12 |
| O=C(O)c1ccc(CN2CCc3ccccc3C2)cc1 | -0.6 | nt |
| CN1C2CCC1CC(N=Cc1ccccc1)C2 (stereo unspecified) | -0.75 | -0.28 |
| Cc1ccc(C)c(N2C(=O)CS/C2=N\NC(=O)c2ccc(S(=O)(=O)N3CCCC3)cc2)c1 | 1.4 | nt |
| O=C1N=c2ccc(Br)cc2=C1c1sc(=S)n(-c2ccc(O)cc2)c1O | nt | -2.2 |
| COc1cc(C2C(C#N)=C(N)Oc3c2c(=O)oc2ccccc32)ccc1OC(=O)c1cccs1 (stereo unspecified) | nt | 0.43 |
| Cc1ccc(-n2c(CCc3ccc(O)cc3)n[nH]c2=S)c(C)c1 | nt | -0.94 |
| Cc1ccc(NNC(=O)C(C)(C)O)c(C)c1 | -0.15 | nt |
| CC1(C)CC(=O)C=C(NCCCNC2CCCCC2)C1 | -0.4 | 0.16 |
| CC/C(C)=N/n1c(-c2ccc3c(c2)NC(=O)CO3)csc1=Nc1ccc(C)cc1 | 0.15 | nt |
| COC(OC)C12c3ccccc3C(c3ccccc31)C1C(=O)N(CCc3ccccc3)C(=O)C12 (stereo unspecified) | nt | -0.39 |
| CN(Cc1ccccc1)C(=O)CSc1nc2cc(C(=O)NCc3ccco3)ccc2c(=O)n1-c1ccc(F)cc1 | nt | 0.02 |

Two consecutive compounds out of the list so far, for reference:
| SMILES | AID504770 | CapD inh |
| --- | --- | --- |
| O=C(Nc1cc(N2CCCCC2)ncn1)c1ccc(F)cc1 | -0.2 | 0.15 |
| Cc1ccc(CNc2ccccn2)cc1 | -0.6 | 12 |

Additional records follow.
| SMILES | AID504770 | CapD inh |
| --- | --- | --- |
| COc1ccc(Br)cc1/C=C1/N=C(c2cc([N+](=O)[O-])ccc2OC)OC1=O | nt | -0.47 |
| COC(=O)C(N)Cc1c[nH]c2ccccc12 (stereo unspecified) | 1.8 | -0.12&0.35 |
| C=CCOc1ccc(C2C(C(=O)OCC)=C(C)NC3=C2C(=O)c2ccccc23)cc1Cl (stereo unspecified) | nt | 0.61 |
| CN1CC=C(c2c[nH]c3ccccc23)CC1 | 0.3 | 0.04 |
| CCn1ncc(Cc2cnn(CC)c2C)c1C | -0.55 | -0.055 |
| CCCn1c(NCc2cccc(OC)c2OC)nc2ccccc21 | 1.1 | 0.21 |
| Cc1cc(C)nc(NS(=O)(=O)c2ccc(NC(=O)c3sc4nc5c(cc4c3N)CCC5)cc2)n1 | nt | 1.3 |
| Cc1cc(Br)cc(Br)c1 | 1.1 | -0.21 |
| Cc1cc(Br)ccc1Nc1ncnc(-n2cccc2)n1 | 0.4 | -0.54 |
| Cc1nnc(-c2cc3ccccc3c3c2OC2(C=N3)N(C)c3ccccc3C2(C)C)o1 (stereo unspecified) | nt | -0.29 |
| Cc1cccc(C)c1NC(=O)c1cc(S(=O)(=O)N2CCN(Cc3ccc4c(c3)OCO4)CC2)ccc1F | nt | -0.52 |
| O=C(O)c1nccnc1C(=O)N1CCCCCC1 | -0.3 | -0.2 |
| Nc1ccccc1C(=O)NCc1ccccn1 | nt | 84 |
| O=C1CCC(=O)N1c1nccs1 | -1 | 0.94 |
| COc1ccc(NC(=O)CCc2nnc3n(Cc4ccccc4)c(=O)c4ccccc4n23)cc1 | -1.2 | -0.73 |

(cont.)
Second line of a record – AID504770 | CapD inh
Cc1ccc(-c2nnc(NC(=O)CCS(=O)(=O)c3ccc(F)cc3)o2)c(C)c1
→ -0.1 | nt
CC(C)(C)OC(=O)C(Cc1c[nH]c2ccccc12)NC(=O)OCc1cc(F)ccc1C(F)(F)F (stereo unspecified)
→ nt | 0.6
Cc1cccc(Oc2ncc(F)c(Oc3cccc(C)c3)n2)c1
→ 0.15 | 0.44
CSC1CCCCC1(O)CSc1nc2c(cc1C#N)CCCC2 (stereo unspecified)
→ -0.45 | 0.71
O=C(CCS(=O)(=O)c1cccs1)Nc1ccc(C(=O)N2CC=C(c3ccccc3)CC2)cc1
→ -1.4 | 1.4
CC1CCCC(NC(=O)c2ccc3c(c2)NC(=O)CS3)C1C (stereo unspecified)
→ 4.2 | -0.84
COc1ccc(CCCOC(=O)NCCc2cccc(OC)c2)cc1
→ nt | -0.41
CCCNC(=O)C1CN(S(=O)(=O)c2ccc(C)cc2)c2ccccc2O1 (stereo unspecified)
→ -1.4 | nt
COc1ccc2[nH]c(C(=O)O)cc2c1
→ -0.4 | 79
Cc1cc2ccccc2n1CCNC(=O)C12CC3CC(CC(C3)C1)C2
→ 2.5 | -0.53
COc1ccc(OC)c(Nc2nc(-c3cc4ccccc4oc3=O)cs2)c1
→ nt | 1
CC(C)C(NC(=O)c1ccc(C(C)(C)C)cc1)C(=O)N1CCC1 (stereo unspecified)
→ -0.65 | nt
COc1ccc(C2Nc3ccccc3C(=O)N2c2ccc(Cl)cc2)cc1CSc1ccccn1 (stereo unspecified)
→ nt | 37
CCN(C1CCS(=O)(=O)C1)S(=O)(=O)c1ccccc1 (stereo unspecified)
→ 0 | nt
CCn1c(CSc2nc3ccccc3s2)nnc1SCC(=O)c1ccc2c(c1)OCCO2
→ -0.2 | nt
CC(=O)Nc1ccccc1-c1nc2ccc(C(=O)N3CCN(c4cccc(C)c4)C(C)C3)cc2[nH]c1=O (stereo unspecified)
→ -0.45 | 18
COc1cc(CN2CCN(CCOC(=O)N3CCCC3C(=O)OCc3ccccc3)CC2)cc2c1OCO2 (stereo unspecified)
→ nt | 0.19
O=C(Nc1ccc(Cl)cc1)c1cnccc1C(F)(F)F
→ nt | -0.73
CCSCCOC(=O)C1=C(C)NC2=C(C(=O)CC(c3ccccc3)C2)C1c1ccc2c(c1)OCO2 (stereo unspecified)
→ nt | 19
COc1ccccc1C1CCN(C(=O)OCCSCCNC(=O)c2sc3ccccc3c2Cl)CC1
→ nt | -0.41
Cc1ccc(S(=O)(=O)N(CCC#N)Cc2ccccc2)cc1
→ -0.05 | nt
CCOC(=O)c1ccc(N=C2SC(C(=O)NCCc3ccccc3)CC(=O)N2C)cc1 (stereo unspecified)
→ nt | 0.18
NC(=S)CCN1C(=O)c2ccccc2C1=O
→ -0.55 | 0.065
Cc1cc(C)c2nc(NC(=O)CCOc3ccccc3)sc2c1
→ 2.1 | 0.33
CCOc1ccc(CCNC(=O)COc2cccc(-n3cnnn3)c2)cc1OCC
→ -0.15 | nt
Cc1cc(C)cc(Oc2coc3cc(OCC(=O)NCc4ccccc4)ccc3c2=O)c1
→ 1.6 | 0.83
CC1=NN(C(=S)c2ccccc2)C(C)(O)C1 (stereo unspecified)
→ -0.7 | nt
O=C(NCCC1=CCCCC1)c1cc2cc(Cl)cc(Cl)c2oc1=O
→ 0.05 | -0.29
CCn1cc(SCC(=O)N2N=C(c3cccs3)CC2c2ccc(F)cc2)c2ccccc21 (stereo unspecified)
→ -1.1 | 1.4
CC1(C)COC2(OC1)C(=O)N(CN1CCc3ccccc3C1)c1ccccc12
→ nt | 0.05

The results go on:
Second line of a record – AID504770 | CapD inh
Cc1c(O)ccc2c1OC(C)(C)CC2=O
→ nt | 26
FC(F)(F)c1cccc(-n2cncn2)n1
→ -0.4 | 0.14
Cc1ccc(N2C(=O)Nc3ccccc3C2(O)C(=O)NC2CCCC(C)C2C)cc1C (stereo unspecified)
→ nt | 0.79
COc1cc(C(=O)N2CCC(Nc3cccc(S(=O)(=O)C(F)(F)F)c3)CC2)cc(OC)c1OC
→ nt | -0.025
c1ccc(CSc2nnc(CCCCc3nnc(SCc4ccccc4)o3)o2)cc1
→ -0.7 | 0.41
CCCCN1Cc2c(n(CC(=O)c3ccccc3)c3cc(-c4ccccc4)nn3c2=O)C1=O
→ -0.5 | 3.5
CS(=O)(=O)Nc1ccc2c3c(cccc13)CC2
→ 0.15 | 9.9
CC(O)c1ccc(NC(=O)c2nn3c(c2Br)NC(c2cccs2)CC3C(F)(F)F)cc1 (stereo unspecified)
→ nt | -0.17
CC1(C)CC(=O)C2=C(C1)Nc1ccc3ccccc3c1C2c1ccc(F)cc1 (stereo unspecified)
→ nt | 29
CCC(=O)Nc1ccc(C(=O)N2CCCCC2C)cc1 (stereo unspecified)
→ 0.05 | 0.065
O=C(O/N=C1\Cc2ccccc2C1=O)c1cccs1
→ 2 | 0.73
Cc1ccc(S(=O)(=O)NC(=O)N2c3ccccc3CCc3ccccc32)cc1
→ -1.8 | 7.4
Nc1c(C(=O)Nc2ccccc2)sc2nc3c(c(-c4ccco4)c12)CCCC3
→ nt | -0.35
CCC(=O)Nc1ccc(C(=O)CSc2nnc(-c3ccc(O)cc3)n2CC2CCCO2)cc1 (stereo unspecified)
→ -0.6 | nt
CC(c1ccc(C(=O)O)o1)N1CCOCC1 (stereo unspecified)
→ 1.9 | -0.07
CC(=O)N1CCC(N(C(=O)CSc2ccccn2)C2CC2)CC1
→ nt | 0.04
CN(C1=NS(=O)(=O)c2ccccc21)c1ccc(OC(=O)C2CC(=O)N(c3ccccc3)C2)cc1 (stereo unspecified)
→ nt | 0.095
Cc1ccc(C(=O)CSc2nnc(-c3cccs3)n2C2CC2)s1
→ 0.4 | nt
O=C(O)c1ccccc1C(=O)NCCN1CCNC1=O
→ 0.75 | -1.4
CC(=O)NC(=O)c1cnn(-c2ccccc2)c1N
→ -0.35 | 0.15
CCCCCOC(=O)C1=C(C)NC2(O)c3ccccc3C(=O)C12O (stereo unspecified)
→ nt | 0.79
COc1cc(S(=O)(=O)N2CCCCCC2)c(OC)cc1Br
→ -0.05 | 0.44
CSC(=S)OC12CC3CC(CC(C)(C3)C1)C2
→ 1.4 | -0.42
O=C(NC(c1ccccc1)c1ccccc1)c1ccc2c(c1)OCCO2
→ -0.55 | -0.14
O=S(=O)(NCCCN1CCOCC1)c1cc(C(F)(F)F)cc(C(F)(F)F)c1
→ 1.4 | 0.44

Random draw from the library. Share with any hit: about 0.39%.
